# High-throughput results deposited in PubChem BioAssay by ICCB-Longwood Screening Facility, Harvard Medical School.
# CapD inh: blocks the Bacillus anthracis CapD enzyme; purified CapD enzyme, fluorescence intensity read-out; hits give low values; some hits fall short of the stated cut; z-score (no concentration beside the values); 140,000 tested, 0.23% active;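 active = z-score under -4 in either of two replicates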;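 also: stock transfer was 100 nL into about 40 µL; score is relative to mean and spread of the plate; one replicate is shown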
# AID504770: E. coli YBA685 growth inhibition, screen for V. cholerae RctB inhibitors; E. coli YBA685 rctB-dependent plasmid, OD600 growth, 3 h; hits give low values; z-score (concentration not given with the values); 130,000 tested, 0.27% active;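 active = z-score under -2 on both plates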;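 also: wells of about 30 µL received 100 nL stock; score is relative to mean and SD of the test wells; the first replicate is given; strong numbers were not always called active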
# * = called active by the depositor; i = inactive; . = no result given. Rows were taken by chance; 0.37% or so of the library scored in one or more.
SMILES,CapD inh,AID504770
COc1ccc(Cl)cc1N(C)C(=O)CCNC(=O)Cn1cnc2ccccc2c1=O,-0.205,.
CC(=O)N(c1ccc2oc(=O)sc2c1)S(=O)(=O)c1cccs1,-2.21,0.25
Cc1ccc(NC(=O)CCSc2nnc3scc(-c4ccccc4)n23)cc1,-0.74,0
CC(=O)N1CC(C)Sc2cc(S(=O)(=O)N(C)c3ccc(C)cc3)ccc21 (stereo not given),-0.145,0
Cc1c(S(=O)(=O)NCc2ccc3c(c2)OCO3)c(=O)n(C)c(=O)n1C,0.49,2.4
CC(C)N(CC(N)=O)C(=O)c1cc2ccccc2o1,.,-0.1
Cc1ccc(NC(=O)OCc2cc(-c3ccc(Cl)c(Cl)c3)on2)cc1,-0.38,.
CSc1sc(C(=O)NNC(=O)OCC2COC3(CCCCC3)O2)cc1-c1nc(C)cs1 (stereo not given),1.02,.
Cc1ccc(S(=O)(=O)NC(C(=O)O)C(C)C)cc1 (stereo not given),0.105,.
CC(=O)Nc1ccc(/C=N/NC(=S)NC(C)C)cc1,.,0.9
CCN(CC)C(=O)c1ccc(O)c(OC)c1,0.035,.
COc1ccccc1NS(=O)(=O)c1cccc(C(=O)Nn2cnnc2)c1,.,0.45
CCSc1ncccc1C(=O)NC(CCSC)C(=O)O (stereo not given),-0.535,.
O=C(Nc1cccc(C(F)(F)F)c1)Nc1cnn2c(C(F)(F)F)cc(C(F)(F)F)nc12,0.42,.
C=CCN1C(=O)/C(=C\c2ccc(C(=O)O)cc2)S/C1=N\c1nnc(C)s1,-1.73,-0.55
NC(=O)c1ccc(/C(N)=N/S(=O)(=O)c2cc(C(F)(F)F)cc(C(F)(F)F)c2)cc1,0.46,.
CC1CCCCN1CC(=O)N1CCN(C(=O)CN2CCCCC2C)CC1 (stereo not given),.,-0.1
Oc1ccc(-n2cncn2)cc1,0,2.2
COc1ccc(OC(=O)N2CCOCC2)cc1,-0.805,-0.55
CCOc1ccc(CCNC(=O)Cn2nc(C)n3cccc3c2=O)cc1OCC,-0.055,0.85

# Complete entries, quoted from the list:
# Profile of O=C(Nc1cccc(C(F)(F)F)c1)Nc1cnn2c(C(F)(F)F)cc(C(F)(F)F)nc12 → CapD inh: 0.42; AID504770: .
# Profile of CCSc1ncccc1C(=O)NC(CCSC)C(=O)O (stereo not given) → CapD inh: -0.535; AID504770: .

# (cont.)
SMILES,CapD inh,AID504770
CC(=O)Oc1ccc2occ(C(=O)c3cccs3)c2c1,0.67,0.75
O=C(O)c1ccc(-n2c(-c3ccccc3)cc3c2CCCC3)cc1,-0.13,-0.65
COc1cc2c(cc1NC(=O)c1cc(C)oc1C)oc1ccccc12,.,-0.65
CCOC(=O)c1sc2nc3n(c(=O)c2c1C)CCCCC3,0.235,-0.45
COc1ccc2oc(=O)c(C(=O)N3CCCCC3)cc2c1,40.9,-0.7
Nc1ccc2nc(SCCOc3ccccc3)sc2c1,.,-0.95
CN(Cc1ccccc1)Cc1c(O)ccc2c(=O)c(-c3ccccc3)coc12,5.8,-0.7
Cn1cnnc1SCC(=O)N1c2ccccc2-c2c(ssc2=S)C1(C)C,-0.295,.
C/C(=N\O)c1nnn(-c2cc(C(F)(F)F)ccc2Cl)c1C,-0.51,-0.85
N#Cc1ccccc1CSc1nnc(COc2ccccc2Cl)n1C1CC1,.,-0.65
CC(=O)NCCN=Cc1sc2ccccc2c1O,-3.96,-0.8
Cc1cc(C(=O)CSc2ccc(S(=O)(=O)N(C)C)cn2)c(C)n1-c1ncn[nH]1,.,-1.4
O=C(CSc1nc2ccccc2[nH]1)NCCC1=CCCCC1,0.185,-0.45
CN(C)c1oc(-c2ccccc2)nc1S(=O)(=O)c1ccccc1,.,0
c1ccc(C(N2CCOCC2)N2CCOCC2)cc1,0.28,-0.2
CCC(CC)c1nnc(NC(=O)CS(=O)(=O)Cc2ccccc2)s1,.,-1.15
O=C(COc1ccc(Cl)cc1Cl)N(c1ccccn1)C1CCCCC1,-0.59,0.75
COc1ccc(CCNC2=NCCS2)cc1OC,0.365,1.2
CCOc1ccc(NC(=O)C(C)CSc2nc3ccc(NC(=O)CC)cc3s2)cc1 (stereo not given),-0.115,.
Cc1cccc(C2NC(=O)c3c(sc4c3CCCC4)N2)c1O (stereo not given),-0.355,.
O=C1c2ccccc2C(Nc2cccc(C(F)(F)F)c2)N1Cc1ccco1 (stereo not given),0.11,-0.25
CCOC(=O)c1cc(C#N)c(C)nc1N1CCN(C(=O)OCCN2CCN(Cc3ccc(OC)c(F)c3)CC2)CC1,1.45,.
NC(=S)NN=C1CCCCC1,0.36,-0.25
CCN(CC)c1nc(C#N)nc(N(CC)CC)n1,-0.555,-1.25
O=C1CCCc2c1cc(C(=O)Nc1ccc(Cl)cn1)c(=O)n2-c1ccccc1,.,-0.75
O=[N+]([O-])CC(c1ccccc1)P(=O)(c1ccccc1)c1ccccc1 (stereo not given),-0.235,.
O=C(CN1C(=O)COc2ccccc21)Nc1ccc(Cl)cc1,0.06,-0.8
c1ccc(-c2nnc(N3CCOCC3)nc2-c2ccccc2)cc1,-0.91,-0.15
OCc1cc(CO)c(O)c(CCc2ccccc2)n1,.,-0.6
CC(C)n1cc(-c2ccc(C(=O)NCC3CCCO3)cn2)cn1 (stereo not given),3.7,.
COc1ccc(-c2c(OC(=O)CCN3C(=O)/C(=C/c4cccs4)SC3=S)ccc3oc(=O)sc23)cc1,0.05,.
CC(C)CCN1C(=O)c2ccc(C(=O)OCC#N)cc2C1=O,.,1.9
c1ccc2c(c1)CC(N1CCCCC1)c1ccccc1N2 (stereo not given),.,0.9
CCOC(=O)N/N=C/c1cc(Cl)ccc1O,0.38,.
COC(=O)C1=C(C(=O)c2ccccc2)C(c2ccc(C(=O)OC)cc2)n2nnnc2N1 (stereo not given),0.91,-0.05
O=C(N1N=CCC1c1ccccc1)C12CC3CC(CC(C3)C1)C2 (stereo not given),0.77,0.35
O=C(O)c1ccc(C2SCCCS2)cc1,.,0.5
CC(=O)Nc1ccc(-c2csc(C)n2)cc1,-0.13,0.1
COc1ccc(Oc2ccc(NC(=O)Cc3cccs3)cn2)cc1,-0.05,-0.35
COc1ccc(NC(=O)C2CC2C)c(OC)c1 (stereo not given),.,-0.15

# A run of entries from the list above:
SMILES,CapD inh,AID504770
COC(=O)C1=C(C(=O)c2ccccc2)C(c2ccc(C(=O)OC)cc2)n2nnnc2N1 (stereo not given),0.91,-0.05
O=C(N1N=CCC1c1ccccc1)C12CC3CC(CC(C3)C1)C2 (stereo not given),0.77,0.35
O=C(O)c1ccc(C2SCCCS2)cc1,.,0.5
CC(=O)Nc1ccc(-c2csc(C)n2)cc1,-0.13,0.1
COc1ccc(Oc2ccc(NC(=O)Cc3cccs3)cn2)cc1,-0.05,-0.35
COc1ccc(NC(=O)C2CC2C)c(OC)c1 (stereo not given),.,-0.15

# The results go on:
SMILES,CapD inh,AID504770
O=C(CSc1nc2c(sc3ccccc32)c(=O)n1Cc1ccccc1)NCC1CCCO1 (stereo not given),0.075,1.55
O=C(Nc1nnc(SCC(=O)N2CCCc3ccccc32)s1)c1c(F)cccc1Cl,-0.415,-0.25
O=S(=O)(NC1CCN(Cc2ccccc2)CC1)c1ccc(Cl)cc1,0.03,.
O=C1/C(=C\c2cn(-c3ccccc3)nc2-c2cc3c(ccc4ccccc43)oc2=O)NC(=S)N1c1ccccc1,8.75,.
COc1ccc(C2OC(=O)Cc3cc(OC)c(OC)cc32)cc1 (stereo not given),0.08,-2.25
O=[N+]([O-])c1ccc(Oc2c(Cl)cc(S(=O)(=O)N3CCCCC3)cc2Cl)cc1,-0.13,.
CC(C)C(=O)Nc1nc(-c2cc3ccccc3oc2=O)cs1,i,-0.15
COC(=O)C1=C(C)NC2=C(C(=O)CC(c3ccc(OC)c(OC)c3)C2)C1c1ccc(OC)cc1OC (stereo not given),3.97,.
CN1CCN(S(=O)(=O)c2cccc(C(=O)N3CCN(C/C=C/c4ccccc4)CC3)c2)CC1,.,1.1
O=C(O)c1ccccc1-c1nnc2c(Cl)cc(C(F)(F)F)cn12,-0.155,0.35
COc1ccccc1N1C(=O)C(Cc2ccccc2)N=C1N1CCOCC1 (stereo not given),1.83,0.75
CC(C)(C)CC(=O)NC(C)(C)C,0.99,-0.1
CSc1nnc(-c2cccc([N+](=O)[O-])c2)o1,0.28,.
O=C(COc1ccccc1)NNc1nc2c(F)cccc2s1,.,0.2
COc1ccc(N2CCN(C(=O)OCC3CCCCN3Cc3cc(Br)c(OC)cc3OC)CC2C)cc1 (stereo not given),-1.07,.
Cc1cc(NS(=O)(=O)c2ccc(Cl)s2)no1,-0.94,1.5
OCC(O)Cn1c(SCCOc2ccc(Cl)cc2)nc2ccccc21 (stereo not given),-0.115,.
CC1CCCCC1NC(=O)CCCCCn1c(=S)[nH]c2ccccc2c1=O (stereo not given),-0.805,.
CC(C)(C)c1ccc2c(c1)CN(c1ccc(F)cc1)CO2,0.885,0
COC(=O)c1ccc(COC(=O)CNC(=O)C23CC4CC(CC(C4)C2)C3)o1,.,-0.95

# Three entries from above, with bars between the fields:
smiles | CapD inh | AID504770
Cc1cc(NS(=O)(=O)c2ccc(Cl)s2)no1 | -0.94 | 1.5
CC1CCCCC1NC(=O)CCCCCn1c(=S)[nH]c2ccccc2c1=O (stereo not given) | -0.805 | .
CSc1nnc(-c2cccc([N+](=O)[O-])c2)o1 | 0.28 | .

# Additional results.
SMILES,CapD inh,AID504770
O=C(Cn1c(=O)oc2cc(S(=O)(=O)NC3CCCC3)ccc21)NCc1cccs1,5,-0.55
CC(C)N(Cc1nc(-c2ccccc2)no1)C(=O)c1cccs1,.,-0.4
COC(=O)CC1SC(=O)NC1=Nc1cccc(C)c1 (stereo not given),-0.185,-0.75
NC(=O)c1ccsc1NC(=O)Cc1c[nH]c2ccccc12,.,-0.2
Cc1cccc(Nc2nc3nonc3nc2N/N=C\c2cn(Cc3ccc(Cl)cc3Cl)c3ccccc23)c1C,-0.22,.
O=S(=O)(Nc1nc2ccccc2nc1SCCO)c1cc(F)ccc1F,.,-1.15
O=C(CCc1ccccc1)N=Nc1c(O)[nH]c2ccccc12,-0.46,1.6
COc1cccc(-c2noc(NC3CCN(Cc4ccccc4)CC3)n2)c1OC,0.03,0.1
FC(F)(F)c1cccc(Nc2ncnc3sc4c(c23)CCC4)c1,1.69,-0.45
O=C(NNC(=O)c1ccc(Cn2cnc(Cl)c2Cl)o1)OCc1ccccc1-c1ccccc1,-0.625,.
CCc1cc2c3c([nH]c2cc1S(=O)(=O)Nc1cccnc1)CCCC3=O,-0.22,-0.35
FC(F)(F)c1cccc(Nc2nnc(-c3cccnc3)s2)c1,11.7,1.4
Cc1ccc(-c2n[nH]c(=S)n2CCC(=O)O)cc1,.,-0.5
O=C(CCc1nc2cccnc2n1-c1ccccc1)NC1CCCC1,0.19,0.8
O=C(CCCc1ccccc1)NN1CCOCC1,-0.63,2.3
CCC(CC)C(=O)Nc1ncc2c(n1)CC(C)CC2=O (stereo not given),0.08,-0.6
COc1nc(-c2ccccc2)nnc1C(F)(F)F,0.105,-0.65
Cc1cccc2nc(CSc3ccccc3N)cn12,i,-0.8
CCOC(=O)C1=C(C)N=c2s/c(=C\c3cc([N+](=O)[O-])ccc3N3CCOCC3)c(=O)n2C1c1ccccc1OC (stereo not given),0,.
COc1ccccc1NC(=O)[C@H](CSCc1ccccc1)N1Cc2ccccc2C1=O,-0.13,-2.4
CCCN1C(=O)/C(=N\OCC(=O)Nc2cccc(Cl)c2)c2ccccc21,.,-0.1
Cc1csc(=O)n1CC(=O)OCC(=O)c1ccc(Cl)s1,.,1.15
COCCSc1nnc(NS(=O)(=O)c2ccccc2)s1,-0.225,-0.9
O=C(O)c1ccc(S(=O)(=O)c2ccc3c4c(cccc24)C(=O)N(c2cccc(O)c2)C3=O)cc1,0.275,.
O=C(COC(=O)CC1CC2CCC1C2)NC1CC1 (stereo not given),0.795,0.05
CC(C)(C)c1ccc(C(=O)NCCN2CCOCC2)cc1,0.22,0.5
COc1ccc(CN2CCOCC2)cc1C,0.32,-0.65
COc1cc([N+](=O)[O-])ccc1-c1ccc(/C=C2\C(=O)N(c3ccc(C(=O)OC(C)C)cc3)N=C2C)o1,0.375,.
COc1cc(C(Nc2ccccn2)c2c(C)[nH]c3ccccc23)cc(OC)c1OC (stereo not given),0.515,0.35
O=c1[nH]c2cc3c(cc2cc1C(c1nnnn1C1CCCC1)N1CC=C(c2ccc(F)cc2)CC1)OCO3 (stereo not given),.,-0.15
O=C1NC(=O)N(Cc2ccccc2)C(=O)/C1=C\N1CCCc2ccccc21,-2.24,1.1
COc1ccc2nc(SCC(=O)Nc3cc(Cl)ccc3OC)[nH]c2c1,-0.735,.
COc1cccc(C2Nc3ccc4ccccc4c3C3=C2C(=O)CC(C)(C)C3)c1O (stereo not given),5.53,.
C=CCN1C(=O)C(=Nc2ccc(C)c(Cl)c2)c2ccccc21,-0.055,-1.7
Cc1ccc(-n2c(CCC(=O)OCC(=O)Nc3cc(C)on3)nc3ccccc3c2=O)cc1,.,-0.55
COC(=O)Nc1cc2sccc2nc1C(F)(F)F,-0.155,.
NC(=O)Cc1cc(=O)[nH]c(=S)[nH]1,.,-0.4
CCOC(=O)C1CCN(C(=O)c2cccs2)CC1,0.395,-0.3
CCn1c2ccccc2c2cc(NC(=O)NCc3noc4ccccc34)ccc21,1.75,-1.05
Cc1ccc(-c2cnnn2-c2ccc(C(=O)COC(=O)c3ccccc3F)cc2)cc1,0.6,0.3
